# Resorufin autofl: qHTS Assay for Spectroscopic Profiling in Resorufin Spectral Region. Compound fluorescence, resorufin region 547/598 nm, buffer; stronger effect = higher value. max dye-equivalent concentration, M. 0.04% of 59,000 active. AID 588, 2007; active = above 10 nM dye equivalent; inconclusive = 1 to 10 nM; inactive = 1 nM or less; a few of its hits are not listed in these tables; further: highest value over a series up to 38 µM
#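 Compounds in 100 mM Tris buffer, pH 8.0, incubated 15 min at room temperature, then read with 547 nm excitation and 598 nm emission filters. Fluorescence was converted to dye-equivalent concentration using an on-plate six-point resorufin standard curve.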
# A647 fluor: qHTS Assay for Spectroscopic Profiling in A647 Spectral Region; Compound fluorescence, A647 channel (570/671 nm), Tris buffer; max dye-equivalent concentration, M; 59,000 tested, under 10 active; AID 592, 2007; active means above 1 µM dye equivalent; inconclusive means 0.1 to 1 µM; inactive means 0.1 µM or less;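 further: values scaled relative to a standard on each plate; highest value over a series up to 38 µM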
#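 Compound fluorescence was measured in 100 mM Tris buffer, pH 8.0, after 15 min at room temperature, using 570 nm excitation and 671 nm emission filters. Signal was normalized to a per-plate Alexa 647 standard curve and expressed as dye-equivalent concentration at each compound concentration.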
# A488 autofl: qHTS Assay for Spectroscopic Profiling in A488 Spectral Region. compound autofluorescence, A488 spectral region, dye equivalency; stronger effect = higher value. max dye equivalency, M. AID 591, 2007. 0.1% of 59,000 active; active = above 10 nM dye equivalent; inconclusive = 1 to 10 nM; inactive = 1 nM or less; about half of its hits are not listed in these tables;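 further: highest value over a series up to 38 µM; compound alone in buffer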
#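 Intrinsic compound fluorescence is measured in 100 mM Tris buffer at pH 8.0 following 15 min incubation at room temperature. Intensities at 480 nm excitation/540 nm emission are calibrated to an on-plate A488 concentration series, giving dye-equivalent concentrations.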
# TSHR agonist: qHTS Assay for Agonists of the Thyroid Stimulating Hormone Receptor. Thyrotropin receptor (Homo sapiens), P16473. HEK293-CNG-TSHR cells (CNG channel as cAMP sensor), membrane potential dye, cAMP. Potency, µM (series often up to 57.1 µM), without a hit: at the top dose activation, actives largely listed as activators. 0.48% of 73,000 active. AID 926, 2007; active = well fitted activation curve of enough size with the parental cells flat; inconclusive = any curve in the parental cells; inactive = parental cells flat and receptor cells flat or falling; further: potency means the concentration at half of the fitted maximal effect; % of control where 0% means no effect; weak receptor curves with flat parental cells got no call and are not listed
# Target sequence (P16473 whole entry, looked up): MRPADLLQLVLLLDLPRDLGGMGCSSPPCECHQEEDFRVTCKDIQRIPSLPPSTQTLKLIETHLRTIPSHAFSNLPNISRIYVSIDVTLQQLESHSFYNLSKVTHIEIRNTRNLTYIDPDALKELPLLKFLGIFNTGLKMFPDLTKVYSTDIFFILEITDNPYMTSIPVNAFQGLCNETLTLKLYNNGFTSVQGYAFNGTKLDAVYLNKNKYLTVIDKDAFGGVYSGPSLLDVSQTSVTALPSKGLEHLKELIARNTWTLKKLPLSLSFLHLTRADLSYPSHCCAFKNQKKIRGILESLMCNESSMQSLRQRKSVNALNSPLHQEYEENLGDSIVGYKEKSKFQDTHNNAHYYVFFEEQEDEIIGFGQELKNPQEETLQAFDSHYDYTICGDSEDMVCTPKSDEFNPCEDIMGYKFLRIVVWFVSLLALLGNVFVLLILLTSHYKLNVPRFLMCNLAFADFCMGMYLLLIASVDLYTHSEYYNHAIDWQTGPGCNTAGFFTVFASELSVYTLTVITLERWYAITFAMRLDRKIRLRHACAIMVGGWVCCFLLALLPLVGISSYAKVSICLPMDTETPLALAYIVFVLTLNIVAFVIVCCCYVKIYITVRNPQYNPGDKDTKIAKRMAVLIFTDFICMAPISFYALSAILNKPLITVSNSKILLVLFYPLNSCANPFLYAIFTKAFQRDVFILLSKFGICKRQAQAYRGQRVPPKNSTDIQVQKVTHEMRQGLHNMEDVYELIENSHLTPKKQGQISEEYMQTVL
#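 HEK 293 cells stably expressing TSHR and a cAMP-gated CNG channel; parental CNG-only cells as counterscreen. Cells preloaded 60 min with membrane potential dye plus 100 uM RO 20-1724, then compound 30 min; fluorescence read at 590 nm.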
# AID923: qHTS Assay for Allosteric/Competitive Inhibitors of Caspase-1: Spectroscopic Profiling in AFC Spectral Region | compound fluorescence, AFC spectral region (405/520 nm); almost no hit is shown here | Potency, µM (highest dose often 57.5 µM), for the others: at the highest dose fluorescence increase, actives largely listed as activators | 1.1% of 75,000 active | AID 923, 2007; active means well fitted activation curve with a large enough effect; inconclusive means small, poorly fitted or top-dose-only effect;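 further: potency means the concentration at half of the fitted maximal effect; 0% is about no effect; scaled to a free AFC standard on each plate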
#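 Titrations up to 57 uM read every 20 sec for 3 min (405/520 nm) with 50 nM caspase 1 and 5 uM Ac-WEHD-AFC, pH 7.5 HEPES buffer. Fluorescence-vs-time intercept gave baseline, scaled against on-plate AFC standard.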
# Active calls of the source: *; i = inactive; ? = inconclusive; / = no result given; & = joins results of further samples; [ ] = remark or other dose. This is a subset, so the mix of outcomes need not match the whole.
Molecule | A488 autofl | AID923 | A647 fluor | TSHR agonist | Resorufin autofl
N#Cc1c(NCCN)nc(NCc2ccccc2)c2c1CCN(Cc1ccccc1)C2 | i | / | 1e-09 | / | i
O=c1[nH]cnc2sc3c(c12)CCCC3 | i | -0.8% | 1e-09 | / | i
COc1cccc(C2CC(c3ccccc3)Nc3ncnn32)c1 (stereo not given) | i | 0.4% | 1e-09 | 0% | i
COc1ccc(CN2C(=O)CN=C2Nc2cccc(C)c2C)cc1 | i | 0.9% | 5.3e-08 | 12% | i
CCOC(=O)c1sc(NC(=O)CSc2n[nH]c(-c3ccccc3)n2)c(C#N)c1C | i | -2.2% | 1.2e-08 | ? | i
Clc1ccc(-c2nn3c(-c4ccccc4)nnc3s2)cc1 | i | -0.9% | 2e-08 | ? | i
CC(=O)Nc1ccc(C(=O)CSc2nnc(Cn3nnc4ccccc43)n2C)cc1 | i | -0.3% | 1e-09 | -5% | i
CC(C)c1ccc(O)c(N)c1 | i | / | 2e-09 | / | i
CC(C)(C)OC(=O)N1CCCC(C(=O)CC#N)C1 (stereo not given) | i | 2.8% | 1e-09 | 4% | i
Cc1ccc(CNC(=O)CN2C(=O)COc3ccc(C)cc32)cc1 | i | -1.3% | 1e-09 | 8% | i
CCC(C)(C)n1nnnc1C(c1ccccn1)N1CCOCC1 (stereo not given) | i | 9.1% | 1e-09 | -9% | i
Cc1nn(C)c(C)c1S(=O)(=O)Nc1ccc2c(c1)OCO2 | i | -1.3% | 1e-09 | 14% | i
COC(=O)COn1c(SCC(=O)OC)nc2ccccc2c1=O | i | / | 5.5e-09 | / | i
COc1ccc(S(=O)(=O)Cc2ccc(C(=O)N3CCN(c4ccccn4)CC3)o2)cc1 | / | 0.8% | / | 14% | /
Cc1cc2c(=O)n(CC(=O)N3CCN(c4ccc(F)cc4)CC3)cnc2s1 | i | -0.3% | 4.2e-09 | -3% | i
Cn1c(C(=O)N2CCCC(C(=O)NCCCSC3CCCCC3)C2)cc2sccc21 (stereo not given) | i | 0.1% | 3.3e-08 | ? | i
CCn1c(NC(=O)c2cccc(Cn3cc(Cl)cn3)c2)nc2ccccc21 | / | 2.3% | / | ? | /
CC(C)(C)n1nnnc1C(c1ccc2ncccc2c1)N1CCSCC1 (stereo not given) | i | -0.2% | 2.8e-08 | ? | i
CCn1c(SCC(=O)Nc2cccc(C)n2)nnc1-c1ccco1 | i | 0.7% | 1.5e-09 | 1% | i
O=C(CN(C(=O)CCC(=O)Nc1nccs1)c1ccc2c(c1)OCO2)NCC1CCCO1 (stereo not given) | i | -2.1% | 5.6e-08 | 2% | i
NS(=O)(=O)c1ccc(NC(=O)CCC2CCCCC2)cc1 | / | -0.2% | / | 0% | /
COc1ccccc1C(=O)Nc1c(C)n(C)n(-c2ccccc2)c1=O | / | 0.1% | / | -10% | /
COc1ccc(OC)c(C2C(C(=O)c3cc4ccccc4o3)=C(O)C(=O)N2c2cc(C)on2)c1 (stereo not given) | i | -3.6% | 6.5e-09 | ? | i
CCOC(=O)CCn1nnc(N)n1 | i | -1.9% | 1e-09 | -2%[11.4 µM] | i
Cc1cc(C(=O)NCCCc2ccccc2)no1 | i | 0.0% | 1e-09 | -8% | i
COc1ccc(N(Cc2cc3cc(OC)ccc3[nH]c2=O)S(C)(=O)=O)cc1 | i | -0.6% | 1e-09 | 14% | i
O=C(NC12CC3CC(CC(C3)C1)C2)N1CCC(O)CC1 | i | 5.7% | 1e-09 | 6% | i
COc1cc(C(=O)NCc2cn3ccsc3n2)cc(OC)c1OC | i | -1.8% | 7.9e-09 | 1%[11.4 µM] | i
COC(=O)CSc1nnc2n1C(C)(C)Cc1ccccc1-2 | i | 0.3% | 1.7e-08 | 4% | i
CCOC(=O)CSc1nnc([C@H](CC(C)C)NC(=O)OC(C)(C)C)o1 | i | -2.0% | 2.2e-08 | 7% | i

# A second format for part of the listing above:
COc1cc(C(=O)NCc2cn3ccsc3n2)cc(OC)c1OC
- A488 autofl: i
- AID923: -1.8%
- A647 fluor: 7.9e-09
- TSHR agonist: 1%[11.4 µM]
- Resorufin autofl: i
COC(=O)CSc1nnc2n1C(C)(C)Cc1ccccc1-2
- A488 autofl: i
- AID923: 0.3%
- A647 fluor: 1.7e-08
- TSHR agonist: 4%
- Resorufin autofl: i

# Additional structures follow.
Molecule | A488 autofl | AID923 | A647 fluor | TSHR agonist | Resorufin autofl
CCCCN(C)C(=O)C(Cc1ccccc1)NS(=O)(=O)c1ccc2c(c1)CCC(=O)N2 (stereo not given) | / | 0.7% | / | ? | /
CCOC(=O)c1c[nH]c2c(Cl)ccc(Cl)c2c1=O | / | 0.9% | / | 24% | /
COCC(=O)N1CCC2(CC1)CCN(c1ccncc1)CC2 | i | 2.1% | 1.2e-08 | ? | i
N#CC(C(=O)NC1CC1)c1nc2ccccc2nc1N1CCN(C/C=C/c2ccccc2)CC1 (stereo not given) | ? | / | 1e-09 | / | i
CCc1ccc2[nH]c(=O)c(C(c3nnnn3Cc3ccc(OC)cc3)N3CCOCC3)cc2c1 (stereo not given) | i | 1.6% | 2.3e-08 | 1% | i
Cc1nc2cc(C(F)(F)F)ccc2n1C1CCN(CC(=O)NC(C)(C)C)CC1 | i | 1.4% | 1e-09 | -2% | i
CCOc1ccc(-n2c(=O)c3c(C)c(C)sc3n(CC(=O)NCc3ccco3)c2=O)cc1 | i | -0.9% | 1.1e-08 | 2% | i
O=C(CN1C(=O)CSc2ncccc21)NCCN1CCOCC1 | / | 0.1% | / | 0% | /
CC(C)CO[C@H](c1ccc2c(c1)OCO2)[C@H](C)Br | i | -0.3%[11.5 µM] | 3e-08 | 2%[11.4 µM] | i
Cc1ccc2sc(NC(=O)CN3C(=O)CCC3=O)nc2c1C | / | -2.8% | / | 10% | /
CC1CCCC(C)N1C(=O)CN1CCN(c2nc(-c3ccc(F)cc3)cs2)CC1 (stereo not given) | i | 1.2% | 2.6e-08 | ? | i
Cc1oc(-c2nc3ccccc3n2C)cc1C(=O)c1ccccc1 | i | 7.0% | 4.5e-09 | ? | i
Cn1cnnc1Sc1nc2c(c(=O)n(C)c(=O)n2C)n1C | i | -2.5% | 6.2e-08 | -9% | i
Cc1n[nH]c(C)c1S(=O)(=O)N1CCc2ccccc21 | i | 3.2% | 7.7e-09 | -1% | i
O=C(Nc1ccc(N2CCOCC2)cc1)C1CC1 | i | 3.8% | 1e-09 | -2% | i
CCCCCC(C(=O)O)C(C)CC(=O)NC1CCCCC1 (stereo not given) | i | 0.6% | 1.2e-09 | 11% | i
CCOC(=O)c1ccccc1NC(=O)CN(c1ccccc1OCC)S(C)(=O)=O | / | -1.0% | / | 15%[11.4 µM] | /
CC1=C(C(=O)Nc2ccccc2Cl)C(c2ccc(N(C)C)cc2)NC(=O)N1 (stereo not given) | / | 3.3% | / | -2% | /
Cc1ccc(-c2nnc(SCC(=O)Nc3ccccc3N3CCOCC3)o2)cc1 | i | 2.0% | 1.7e-08 | 34% | i
CSc1nnc(-c2ccncc2)n1CCCN1CCCC1=O | i | -0.9% | 1e-09 | 5% | i
COc1cccc(C2=NOC(C(=O)Nc3ccc(OC)c(OC)c3)C2)c1 (stereo not given) | i | -1.2% | 1e-09 | -1% | i
Cc1sc2nc(C(C)Nc3ccccc3N3CCOCC3)[nH]c(=O)c2c1C (stereo not given) | i | 5.2% | 1e-09 | -9% | i
COn1c(SCc2cccnc2)nc2ccccc2c1=O | i | -1.3% | 1.1e-08 | ? | i
O=C1CC(c2ccc(F)cc2)Sc2ccccc2N1 (stereo not given) | i | 2.0% | 7.6e-09 | 25% | i
Fc1cccc(/C=N\N=C/c2cccc(F)c2)c1 | / | -1.1% | / | 9% | /
c1ccc(COc2ccc(Nc3ncnc4nc[nH]c34)cc2)cc1 | / | 2.2% | / | 1% | /
O=C(CSc1nnc(-c2cccs2)o1)N1CCCCC1 | / | 1.9% | / | 17% | /
CCN1CCN(C(c2cc(OC)ccc2OC)c2nnnn2Cc2ccccc2)CC1 (stereo not given) | i | 0.2% | 9.8e-09 | 5% | i
NC([N-]/N=C/c1ccccn1)=[S]=[Fe].O=S(=O)(O)O | i | 2.6%[11.5 µM] | 2.6e-08 | 3%[11.4 µM] | i
N#C/C(=C\c1ccc(O)c(O)c1)C(=O)NCCCc1ccccc1 | i | -2.2% | 3e-09&1e-08 | 8%&3% | i
O=C(NCCOC(=O)c1ccc(C(=O)OCCNC(=O)c2ccccc2)o1)c1ccccc1 | / | -0.7% | / | 2% | /
O=S(=O)(c1cccc2cccnc12)N1CCc2ccccc21 | i | 0.4% | 4.6e-08 | ? | i
CC(CCc1ccccc1)NC(=O)C1CCN(c2nnc(-n3cccc3)s2)CC1 (stereo not given) | / | -4.4% | / | 13% | /
CCCC/C=C/C(NC(=O)c1ccc(-c2ccccc2)cc1)c1ccccc1 (stereo not given) | / | 2.0% | / | 13% | /
CCOC(=O)CSc1nn(C)c(=S)s1 | / | -2.3% | / | -7% | /
CCOC(=O)N1CCN(C(=O)C2CCN(S(=O)(=O)c3ccc(Br)s3)CC2)CC1 | i | 0.7% | 2.9e-08 | 3% | i
COc1ccccc1NS(=O)(=O)c1cc(Cl)ccc1OC | i | 2.0% | 1e-09 | / | i
O=C(Nc1cnc2ccccc2c1)N1CCOCC1 | i | 0.0% | 3.6e-08 | -5% | i
COC(=O)c1ccc(=O)n(Cc2ccc3c(c2)OCO3)c1 | i | / | 3e-08 | / | i
COc1cc(C)nc(N2CCC(C(=O)NC3CCCCC3)CC2)n1 | i | 0.1% | 1e-09 | ? | i
CCOC(=O)C1C(C)=CC(=O)CC1c1ccco1 (stereo not given) | i | -1.0% | 1e-09 | 18% | i
O=C(NCC(=O)N(c1ccc2c(c1)OCO2)C(C(=O)NC1CCCC1)c1ccncc1)c1ccco1 (stereo not given) | i | 0.8% | 1e-09 | 5% | i
Cc1ccc(-c2nc(CS(=O)(=O)CC(=O)NCCCN3CCN(C)CC3)c(C)o2)cc1 | / | -1.5% | / | 7% | /
CCCCN1C(=O)C(NC(C)=O)c2cc(Br)ccc21 (stereo not given) | i | -2.4% | 1e-09 | ? | i
CC(=O)N1C(C(=O)O)CSC1c1cccc(C)c1 (stereo not given) | i | -0.9% | 1.2e-08 | 10% | i
COCCOC(=O)C1=C(C)NC(=O)NC1c1ccc(OC(=O)c2ccco2)c(OC)c1 (stereo not given) | / | -0.4% | / | 2% | /
Cc1sc2nc(SCc3nc4ccccc4[nH]3)n(Cc3ccco3)c(=O)c2c1C | i | 2.1% | 2.6e-09 | 26% | i
CC(C)(C)c1ccc(C(=O)NCc2cccnc2)cc1 | i | -0.6% | 1.4e-08 | 3% | i
COc1ccc(NS(=O)(=O)c2coc(C(N)=O)c2)cc1Cl | / | -0.7% | / | 6% | /
CC1(C)Oc2ccc3ccc(=O)oc3c2-c2cn[nH]c21 | i | 0.1% | 5.8e-09 | -3% | i
CCCC(N)CCCCCC(=O)O (stereo not given) | / | 0.0% | / | 1% | /
COc1cc(OC)cc(C(=O)NCc2n[nH]c(=S)n2-c2ccccc2OC)c1 | i | 1.5% | 1e-09 | 8%[11.4 µM] | i
O=S(=O)(NCc1ccccc1)c1cccc2nonc12 | i | -1.9% | 9.7e-09 | -10% | i

# Rewritten with each value named: entries from further up
COCCOC(=O)C1=C(C)NC(=O)NC1c1ccc(OC(=O)c2ccco2)c(OC)c1 (stereo not given)
  A488 autofl: /; AID923: -0.4%; A647 fluor: /; TSHR agonist: 2%; Resorufin autofl: /
Cc1sc2nc(SCc3nc4ccccc4[nH]3)n(Cc3ccco3)c(=O)c2c1C
  A488 autofl: i; AID923: 2.1%; A647 fluor: 2.6e-09; TSHR agonist: 26%; Resorufin autofl: i

# Bioassay records: PubChem BioAssay, National Center for Advancing Translational Sciences (NCATS)
